# nsP2pro primary: blocks chikungunya virus nsP2 protease peptide cleavage; 1.1% of 31,000 active; FRET peptide cleavage, nsP2pro, fluorescence 1 h; Potency, µM (doses to about 24.9 µM), for the others: at the top dose activity change, negative = inhibition, usual class: inhibitors; AID 1964107; active means well fitted inhibition curve with a large enough effect; inconclusive means small, poorly fitted or top-dose-only effect; inactive means no such curve, though single readings can be large or run the other way; also: nearly all actives have a fitted effect of over 60% in size; a reference inhibitor and vehicle were the controls
# An asterisk follows results filed as active; i = inactive; ? = inconclusive; & = joins results of further samples; [ ] = another dose, or the depositor's remark. % is scaled to controls: 0 for no effect and ±100 for the full control effect; potency is read from the fitted curve at half-maximal effect. Some of the compounds tested; rates above refer to the full screens.
SMILES,nsP2pro primary
COC(=O)C1=COC(O[C@@H]2O[C@H](CO)[C@@H](O)[C@H](O)[C@H]2O)[C@H]2[C@@H]1[C@H](OC(=O)CCc1ccc(O)cc1)C[C@]2(C)O (some centres undefined),?
O=C(Oc1ccccc1C(=O)O)c1ccccc1O,?
CC(C)[C@]12O[C@H]1[C@@H]1O[C@]13[C@]1(O[C@H]1C[C@H]1C4=C(CC[C@@]13C)C(=O)OC4)[C@@H]2O,-6.3%
CC1=C(C(=O)Nc2ccccc2)C(c2ccccc2Cl)N=C(Nc2nc3ccccc3o2)N1 (centres undefined),-1.6%
COC(=O)c1cncn1C(C)c1ccccc1 (centres undefined),-1.6%
Cc1ccc(S(=O)(=O)Nc2cc(C(=O)Nc3nc(-c4ccccc4)cs3)ccc2Cl)cc1,1.1%
N#Cc1c(-c2ccc3c(c2)OCO3)no[n+]1[O-],4.4%
Cc1cnn(-c2ccccc2)c1NC(=O)COCc1ccccc1,19.2%
O=C(O)c1ccc(=O)[nH]c1,-11.8%
COc1ccc(C2Nc3ccccc3C(=O)N2Cc2cccc3ccccc23)cc1COc1ccc(NC(C)=O)cc1 (centres undefined),-8.2%
Cc1ccc([C@@H]2CN(C(=O)c3ccco3)[C@@H]3C4CCN(CC4)[C@@H]32)cc1,0.8%
COc1ccc(S(=O)(=O)NCCc2sc(-c3cccnc3)nc2C)c(F)c1,-8.3%
CN(C)Cc1nnc(C2CC(NC(=O)Cc3c[nH]c(=O)n(C)c3=O)C2)n1C (centres undefined),3.5%
COc1cc(Br)c(Nc2nc(-c3c(C)nc4ncccn34)cs2)c(Br)c1,18.8%
COc1cccc(C(=O)Nc2cc3c(cc2C(=O)c2ccc(C)cc2)OCCO3)c1,-18.0%
Cc1ccc(NC(=O)c2oc3ccccc3c2NC(=O)c2cc3ccccc3o2)cc1,-22.3%
OC1C=C2C3CN(Cc4cc5c(cc43)OCO5)C2CC1O (centres undefined),-13.4%
CCc1ccc(C2CC(=O)Oc3c2c(=O)n(C)c2ccccc32)cc1 (centres undefined),-16.2%
CCCCC1CCC(C(=O)N2CC(=O)Nc3ccc(Br)cc3C2c2ccc(F)cc2)CC1 (centres undefined),-5.1%
COc1ccc(-c2noc(C(=O)NC(C)C)c2[C@H](C)O)cc1,i
Cc1ccc2sc(N(Cc3cccnc3)C(=O)CCOc3ccccc3)nc2c1C,-14.9%
CCOC(=O)C1CCCN(CC(=O)Nc2cc(C)c3c(=O)oc4ccccc4c3n2)C1 (centres undefined),-8.0%
CC(=O)NC(c1ccco1)c1cc(Cl)c2ccc(N3CCCCC3)nc2c1O (centres undefined),?
Cn1ccc(C(=O)NCc2nnc3n2C(C(=O)N2CCOCC2)CC3)n1 (centres undefined),-21.1%
CCn1cnc2c(NCc3cccnc3)nc(C#N)nc21,-0.6%
CC1=C[C@@H]2[C@@H]([C@@H](O)C[C@@]3(C)[C@H]2C[C@@H](C)[C@]3(O)C(=O)CO)[C@@]2(C)Cc3cnn(-c4ccccc4)c3C=C12,47.5%[activator]
O=C(NC1CCN(c2nc3ncccc3o2)C1)c1ccccc1F (centres undefined),-5.4%[39.2 µM]
COc1ccccc1-c1cc(C(=O)N2CCOCC2)nn2cccc12,-25.0%
O=C(c1ccc(C(F)(F)F)cc1)N1CCCC(C(=O)N2CCC(N3Cc4cccn4C3=O)CC2)C1 (centres undefined),?
O=S(=O)(c1ccc(Cl)cc1)N1CCN(c2ccnc3cc(Cl)ccc23)CC1,6.2%
CN(C)c1nc(NC2CC(c3cc(=O)[nH]c(C4CC4)n3)C2)ncc1F (centres undefined),i
Cc1ccc(S(=O)(=O)Nc2ccccc2C(=O)Nc2ccc(-c3ccccc3)cn2)cc1,i
COCCOC1CCN(C(=O)NCc2ccc(C)cc2)CC1,-20.0%
COc1ccc(NS(=O)(=O)c2ccc(NS(=O)(=O)c3ccc4c(c3)OCCO4)cc2)cc1,-9.0%
COc1ccc(N2CCN(C(=O)Cc3coc4ccc(C)cc34)CC2)cc1,-13.9%
O=C(c1ccccc1)c1c(O)cc(O)cc1O[C@@H]1O[C@H](CO)[C@@H](O)[C@H](O)[C@H]1O,-1.5%
Cc1occc(=O)c1O[C@@H]1O[C@H](CO)[C@@H](O)[C@H](O)[C@H]1O,?
CCc1noc(-c2ccn3c(CNC(=O)Cc4c[nH]c5ccccc45)nnc3c2)n1,-24.8%
CC(=O)N1CCN(c2csc3ccc(F)cc3c2=O)CC1,-15.7%
COc1cccc(C(=O)Nc2c3c(nn2-c2ccc(C)cc2C)CS(=O)(=O)C3)c1OC,-26.0%
COC(=O)C1=COC(O[C@@H]2O[C@H](CO)[C@@H](O)[C@H](O)[C@H]2O)C2C(C)C(=O)CC12 (some centres undefined),-2.3%
Cc1ccc(N2CC(c3nnc(Cc4ccc(Cl)cc4)o3)CC2=O)cc1 (centres undefined),-21.7%
COc1cc(O)c(C(CC(=O)N2CCCC(C)C2)c2ccc3c(c2)OCO3)c(OC)c1 (centres undefined),i
Cc1c2cnn(CC(=O)NCC(C)c3ccccc3)c(=O)c2c(C)n1Cc1cccc(Cl)c1 (centres undefined),-11.1%
O=C(O)C1=NOC2CN(Cc3cncs3)CC12 (centres undefined),?

# Shown as labelled records: entries from further up
Cc1occc(=O)c1O[C@@H]1O[C@H](CO)[C@@H](O)[C@H](O)[C@H]1O
- nsP2pro primary: ?
CCc1noc(-c2ccn3c(CNC(=O)Cc4c[nH]c5ccccc45)nnc3c2)n1
- nsP2pro primary: -24.8%
CC(=O)N1CCN(c2csc3ccc(F)cc3c2=O)CC1
- nsP2pro primary: -15.7%
COc1cccc(C(=O)Nc2c3c(nn2-c2ccc(C)cc2C)CS(=O)(=O)C3)c1OC
- nsP2pro primary: -26.0%

# Remaining list, next part
SMILES,nsP2pro primary
O=C(Cc1ccc(Cl)c(Cl)c1)Nc1ccc(S(=O)(=O)NCc2ccco2)cc1,-7.5%
COc1cc(-c2cc3n(C)c(C)c(CCC(=O)NC4CCCCC4)c(=O)n3n2)cc(OC)c1OC,-16.6%
COc1ccc(-c2ccc3ncnc(NCc4ccc(C)o4)c3c2)cc1OC,i
NC(=O)[C@@H]1CC[C@@H]2CN1C(=O)N2OS(=O)(=O)O,-8.3%&2.9%
Cc1ccc(NS(=O)(=O)c2cccc(C(=O)O)c2)cc1C,-6.1%
O=C(CC1CCN(C(=O)c2ccc(F)cc2)C1)NCc1ccccc1 (centres undefined),-8.3%
Cc1ccc(-c2ccc3nnc(CNC(=O)COc4cccc(C)c4)n3n2)cc1,i
Cc1ccc(C)c(S(=O)(=O)n2cnc3ccccc32)c1,-2.7%
COc1ccc(CNc2nc(-c3ccccc3C(F)(F)F)nc3ccccc23)cc1,i
Nc1ncnc2c1c(COc1cccc(Cl)c1)nn2C1CCOCC1,12.6%
O=C(O)C[C@@H]1CCN(C(=O)c2ccco2)C[C@@H]1CCN1CCOCC1,-8.0%[39.2 µM]
Cc1cccc(C(=O)NCCc2sc(-c3ccccc3)nc2C)c1,-7.7%
O=C(NCCN1CCCC1)[C@H](Cc1ccc(OS(=O)(=O)c2cccc3cnccc23)cc1)NS(=O)(=O)c1cccc2cnccc12,i
O=C(c1cc(-c2ccc(Cl)cc2Cl)c2cccn2n1)N1CCCC1,2.3%
O=C(C1CCCN1[S+](=O)([O-])c1cccc(C(F)(F)F)c1)N1CCC(c2nc3ccncc3[nH]2)C1 (centres undefined),2.6%
Cc1cc(N2CCCCC2)nc2ccc(NC(=O)c3cccc(Cl)c3)cc12,40.9%
COCCNc1ncnc2c1c(-c1ccccc1)cn2-c1ccc(C)c(Cl)c1,-18.5%
CC(C)c1ccc(S(=O)(=O)N2CCCN(C)c3ccccc32)cc1,-12.3%
CC(=O)NCCCOc1ccc(C(=O)N2CCC(N3C(=O)CCc4ccccc43)CC2)cc1,-11.7%
Cc1ccc2[nH]c3c(=O)n(CC(=O)N4CCCC(C)C4)ncc3c2c1 (centres undefined),-0.6%
Cc1cc(O)c2c(c1)O[C@@]1(C)CC[C@H]3C(C)(C)CCCC34CO[C@@H]2[C@H]41 (some centres undefined),-13.4%
CN(C)C[C@@H]1CN(c2ccccn2)C[C@H]1NC(=O)NC(C)(C)C,3.5%
Cc1ccc(NC(=O)N2CCN(c3nnnn3-c3ccccc3)CC2)cc1,4.4%
Cn1cc(-c2cc3c(ccn3Cc3ccncc3)c(N3CCOCC3)n2)cn1,?
CCOC(=O)c1cc(-c2ccc(C)cc2)n(CCCC(=O)Nc2cc(C)ccc2C)c1,-15.9%
COc1ccccc1-c1csc2ncnc(Sc3nnnn3C)c12,1.7%
Cc1nnc([C@@H]2CC(F)(F)CN2C(=O)COc2ccccc2)o1,-7.8%
Cc1nnc2n1CCC(NC(=O)c1cccn1C)CC2 (centres undefined),-11.4%
CS(=O)(=O)N[C@H]1CCN2C(=O)c3cc(-c4cccc(C(F)(F)F)c4)ccc3NC(=O)[C@@H]2C1,i
COc1ccccc1C1N=C(Nc2nc3ccccc3o2)NC2=C1C(=O)CCC2 (centres undefined),0.1%
Cc1ccc(C(=O)[C@H]2CC[C@@H](C(=O)Nc3ccc(S(=O)(=O)Nc4nccs4)cc3)C2)cc1C,i
COc1ccc2c(c1)sc1ncc(C(=O)NCc3ccc(Cl)cc3)c(=O)n12,-9.4%
O=C(O)[C@H]1CCCC[C@H]1C(=O)N1CCc2ccccc2[C@H]1CN1C(=O)c2ccccc2C1=O,10.7%
O=C(O)c1ccncc1Nc1nn(CCN2CCC(F)(F)CC2)c2ccc(F)cc12,i
CCCC1CCN(C(=O)CC(c2ccc3c(c2)OCO3)c2c(O)cc(OC)cc2OC)C1 (centres undefined),0.3%[39.2 µM]
COc1ccc(F)cc1-c1cccc(C(=O)NCCNC(=O)c2ccccc2Cl)c1,i
O=C(Cc1ccccn1)N1CCC(C(=O)N2CCC(c3nc4ncccc4[nH]3)CC2)CC1,i
CCOc1ccc(NC(=O)N(Cc2cn(CC)c3ccccc23)C2CCCCCC2)cc1,-6.0%
CC(C)(C)OC(=O)N1CCN(c2ccc(NCc3coc(-c4ccc(C#N)cc4)c3)cc2)CC1,10µM*
O=C(Nc1ccc(C(F)(F)F)cc1)c1cc(S(=O)(=O)NC2CCCCC2)ccc1F,-11.6%
Nc1ncnc2c1ncn2[C@H]1CC[C@@H](CO)O1,-12.2%
CN(CCc1ccccn1)C(=O)[C@@]12CCCC[C@H]1N(C)C(=O)CC2,-0.9%
CCOC(=O)CSc1nc2c(sc3ccccc32)c(=O)n1CCO,-11.4%
COc1ccc(/C=C/C(=O)Nc2nc3n(n2)C(c2ccccc2)C=C(c2ccc(Cl)cc2)N3)cc1 (centres undefined),22.5%
CCC(=O)NC(c1cc(Cl)c2ccccc2c1O)C(C)C (centres undefined),i
Nc1ncccc1CN1C[C@H]2CN(C(=O)C3CCC3)C[C@@]2(C(=O)O)C1,i
Cc1cc(N(C)S(=O)(=O)c2ccc(NC(=O)Cc3ccc(Cl)c(Cl)c3)cc2)no1,?
Cn1c(CN2CCOCC2)nc2cc(NC(=O)c3ccccc3[N+](=O)[O-])ccc21,-14.4%
CC(=O)N1CCC(OCCOc2ccccc2)CC1,0.8%
C=CC(C)(CC/C=C(\C)C(=O)OC[C@H]1O[C@@H](OC(C)(C=C)CC/C=C(\C)C(=O)O[C@H]2[C@H](O)[C@@H](O)[C@H](OC(C)(C=C)CC/C=C(\C)C(=O)O)O[C@@H]2CO)[C@H](O)[C@@H](O)[C@@H]1O)O[C@@H]1O[C@H](CO)[C@@H](O)[C@H](O)[C@H]1O (some centres undefined),?
Nc1ncnc2c1ncn2[C@@H]1O[C@H](CN[S+](=O)([O-])NC(=O)c2cccc(-c3noc(-c4ccccc4F)n3)c2)[C@@H](O)[C@H]1O,i
O=c1c(N2CCN(c3cccc(Cl)c3)CC2)csc2ccccc12,-4.6%
CN(C)CCCOc1nn(Cc2ccccc2)c2ccccc12,5.5%&-3.2%
CCC1C(=O)N(C)CCN1C(=O)c1coc(COc2ccc3c(c2)OCO3)n1 (centres undefined),-3.2%
O=C(O)c1cc(O[C@@H]2O[C@H](CO[C@@H]3OC[C@@H](O)[C@H](O)[C@H]3O)[C@@H](O)[C@H](O)[C@H]2O)c2ccccc2c1O,?
COc1ccccc1OC(C)C(=O)Nc1c(C(=O)c2ccc(Cl)cc2)oc2ccccc12 (centres undefined),-21.2%
COc1ccc(CNc2ncnc3c2c(-c2ccccc2)cn3-c2cccc(C)c2)cc1,-14.5%
C=C1[C@@H](C)[C@H]2[C@H](Cc3ccccc3)NC(=O)[C@]23[C@H](OC(C)=O)/C=C/[C@](C)(O)C(=O)[C@@H](C)C/C=C/[C@H]3[C@@H]1O,-8.2%
COc1cccc(C(=O)N(Cc2ccc(C)o2)C2CCS(=O)(=O)C2)c1 (centres undefined),-20.2%
c1csc(CNc2ccc(N3CCCCC3)cc2)c1,i
# (listing goes on)
SMILES,nsP2pro primary
COCCNc1ncc(-c2ccc(F)cc2)c2c1OCC2,-15.1%[39.2 µM]
NNCCc1ccc(NC(=O)CCCc2ccccc2)cc1,-17.4%
O=C(O)c1ccc(-c2noc(-c3ccccc3C(F)(F)F)n2)cc1,i
CCOc1ccc(NC(=O)CCc2nc3cccnc3n2-c2ccccc2)cc1,?
CCN(CC)CCCC(C)n1c(-c2ccccc2)nc2c(N(CCOC)CCOC)nc(C)nc21 (centres undefined),2.8%
Cc1ccc(OCCn2c(CCN[S+](=O)([O-])C3CCCCC3)nc3ccccc32)cc1,-8.5%
O=C1CC(C(=O)O)C2(CCN(c3cc(C4CC4)ncn3)CC2)N1 (centres undefined),-12.1%

# Compounds shown so far containing a thiophene ring, fused or not, in the order listed:
SMILES,nsP2pro primary
COc1ccccc1-c1csc2ncnc(Sc3nnnn3C)c12,1.7%
CCOC(=O)CSc1nc2c(sc3ccccc32)c(=O)n1CCO,-11.4%
c1csc(CNc2ccc(N3CCCCC3)cc2)c1,i

# Screens deposited in PubChem by National Center for Advancing Translational Sciences (NCATS).
